Screens (PubChem BioAssay)
ID4 binder: binders of human ID4 protein, primary screen, biochemical, small molecule microarray, single point; DNA-binding protein inhibitor ID-4 (Homo sapiens), P47928; Flag-ID4 binding, fluorescence F/B; calls only; 31,000 tested, 1.2% active;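 active = spot signal over background at p below 0.07 in all four prints; compounds were printed on slides so no solution concentration is given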;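 also: a binder raises fluorescence above local background on the spot; about 2 pmol printed per array spot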
Target sequence (P47928 whole entry, looked up): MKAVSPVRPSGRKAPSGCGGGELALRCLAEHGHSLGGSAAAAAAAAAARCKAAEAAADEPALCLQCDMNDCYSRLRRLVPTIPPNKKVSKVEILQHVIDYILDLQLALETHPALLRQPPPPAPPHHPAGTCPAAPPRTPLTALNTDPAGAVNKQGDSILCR
Calls only. A portion of the library, so the mix of outcomes need not match the whole.

What do the screens show for `Cc1c(Br)ccc(NC(=O)CSc2nnc(-c3ccc(Cl)cc3)n2C)c1C`?
ID4 binder: inactive

What do the screens show for `Cc1nc(C)c(C(=O)C2C(=O)C(=O)N(CCCN3CCOCC3)C2c2ccccc2)s1` (stereo not drawn)?
ID4 binder: inactive

What do the screens show for `COc1ccc([C@H]2COc3c(ccc(O)c3OC)C2)c(OC)c1O`?
ID4 binder: inactive

What do the screens show for `CNC[C@H]1Oc2cc(C#CC3CCCC3)ccc2S(=O)(=O)N([C@H](C)CO)C[C@H]1C`?
ID4 binder: inactive

Results for C[C@H](O)C#Cc1ccc2c(c1)O[C@H](CN(C)Cc1ccncc1)[C@@H](C)CN([C@H](C)CO)S2(=O)=O ?
ID4 binder: inactive

How did CCCC#Cc1cnc2c(c1)C(=O)N([C@H](C)CO)C[C@@H](C)[C@H](CN(C)C(=O)NC1CCCC1)O2 do in these assays?
ID4 binder: inactive

What do the screens show for `COC(=O)c1ccc(NC(=O)CN(c2ccc(F)cc2)S(C)(=O)=O)cc1`?
ID4 binder: inactive

How did O=C(NCCc1c[nH]c2ccccc12)NC1CCCCC1 do in these assays?
ID4 binder: inactive

How did O=C1c2ccccc2C(=O)N1CCc1nc(-c2cccc([N+](=O)[O-])c2)no1 do in these assays?
ID4 binder: inactive

What do the screens show for `Cc1sc2c(c1C)-c1nc(SCC(=O)C(C)(C)C)ncc1S(=O)(=O)N2C`?
ID4 binder: inactive

How did COc1cc(-c2oc3cc(O)cc(O)c3c(=O)c2O)ccc1O do in these assays?
ID4 binder: inactive

How did N#CCCCN1C(=O)C(O)(CC(=O)c2ccc(Br)s2)c2ccccc21 (stereo not drawn) do in these assays?
ID4 binder: active

Results for Cc1ccc(C)c(OCCNS(=O)(=O)c2cc([N+](=O)[O-])ccc2C)c1 ?
ID4 binder: inactive

Results for Cc1ccc(-c2cnc3c(c2)C(=O)N([C@H](C)CO)C[C@@H](C)[C@@H](CN(C)C)O3)cc1 ?
ID4 binder: inactive

How did C[C@@H]1CN([C@H](C)CO)C(=O)c2cc(C#CC3CCCCC3)cnc2O[C@H]1CN(C)C do in these assays?
ID4 binder: inactive

Brought forward from above: 7 entries, then new ones.
How did O=C1c2ccccc2C(=O)N1CCc1nc(-c2cccc([N+](=O)[O-])c2)no1 do in these assays?
ID4 binder: inactive

What do the screens show for `Cc1sc2c(c1C)-c1nc(SCC(=O)C(C)(C)C)ncc1S(=O)(=O)N2C`?
ID4 binder: inactive

How did COc1cc(-c2oc3cc(O)cc(O)c3c(=O)c2O)ccc1O do in these assays?
ID4 binder: inactive

How did N#CCCCN1C(=O)C(O)(CC(=O)c2ccc(Br)s2)c2ccccc21 (stereo not drawn) do in these assays?
ID4 binder: active

Results for Cc1ccc(C)c(OCCNS(=O)(=O)c2cc([N+](=O)[O-])ccc2C)c1 ?
ID4 binder: inactive

Results for Cc1ccc(-c2cnc3c(c2)C(=O)N([C@H](C)CO)C[C@@H](C)[C@@H](CN(C)C)O3)cc1 ?
ID4 binder: inactive

How did C[C@@H]1CN([C@H](C)CO)C(=O)c2cc(C#CC3CCCCC3)cnc2O[C@H]1CN(C)C do in these assays?
ID4 binder: inactive

What do the screens show for `CO[C@@H]1CN(C)C(=O)c2ccc(NC(=O)C3CCCC3)cc2OC[C@@H](C)N(C)C[C@H]1C`?
ID4 binder: inactive

Results for Cc1n[nH]c(C)c1SCC(=O)Nc1cccc(Br)c1 ?
ID4 binder: inactive

How did Cc1ccc(S(=O)(=O)n2nc(-c3ccc(Cl)cc3)nc2NCc2ccco2)cc1 do in these assays?
ID4 binder: inactive

What do the screens show for `Cc1ccc(C(=O)C2C(=O)C(=O)N(CCN(C)C)C23C(=O)N(C)c2ccccc23)cc1` (stereo not drawn)?
ID4 binder: inactive

How did O=C(NCc1ccco1)c1ccc2c(c1)C(=O)N(CC1CCCO1)C2=O (stereo not drawn) do in these assays?
ID4 binder: inactive

What do the screens show for `COc1ccc(-c2nc3ccccc3s2)cc1NC(=O)COc1ccc(Br)cc1`?
ID4 binder: inactive

Results for O=C(CSc1nnc(-c2ccccc2O)n1-c1ccccc1)Nc1ccc(Cl)c(C(=O)O)c1 ?
ID4 binder: inactive

What do the screens show for `CC(=O)c1ccc(NC(=O)CNS(=O)(=O)c2cccc(Cl)c2)cc1`?
ID4 binder: inactive

How did COc1ccc(-c2ccc3c(c2)O[C@H](CN(C)CC2CCOCC2)[C@@H](C)CN([C@@H](C)CO)S3(=O)=O)cc1 do in these assays?
ID4 binder: inactive

What do the screens show for `CC(NS(=O)(=O)c1ccccc1)C(=O)Nc1ccc(Cl)c(C(F)(F)F)c1` (stereo not drawn)?
ID4 binder: inactive

Results for C[C@H](CO)N1C[C@H](C)[C@@H](CN(C)CC2CCCC2)Oc2ncc(-c3ccc(F)cc3)cc2C1=O ?
ID4 binder: inactive

Results for C[C@H](CO)N1C[C@H](C)[C@H](CN(C)C(=O)Nc2cccc(F)c2)Oc2ncc(C3=CCCCC3)cc2C1=O ?
ID4 binder: inactive

How did CN(C)CCC(C)(O)Cc1ccccc1 (stereo not drawn) do in these assays?
ID4 binder: inactive

What do the screens show for `Cn1c(=O)c2c(ncn2CC(=O)Nc2ccncc2)n(C)c1=O`?
ID4 binder: inactive

How did C[C@H]1CN([C@@H](C)CO)S(=O)(=O)c2ccc(-c3cccc(C#N)c3)cc2O[C@H]1CN(C)Cc1ccccn1 do in these assays?
ID4 binder: inactive

What do the screens show for `COc1ccc(S(=O)(=O)N(CC(=O)O)C2CCCCC2)cc1Cl`?
ID4 binder: inactive

What do the screens show for `C[C@@H]1CN([C@@H](C)CO)C(=O)c2cccc(N(C)C)c2O[C@@H]1CN(C)Cc1ccc2c(c1)OCO2`?
ID4 binder: inactive

What do the screens show for `COc1ccc(S(=O)(=O)N(C)CC(=O)Nc2ccccc2OC)cc1Cl`?
ID4 binder: inactive

What do the screens show for `O=C(C[C@H]1C=C[C@@H](NC(=O)Nc2ccccc2F)[C@H](CO)O1)NCc1ccc(F)cc1`?
ID4 binder: inactive

How did N#Cc1c(NC(=O)CSc2nnc3c(n2)[nH]c2ccccc23)sc2c1CCCC2 do in these assays?
ID4 binder: inactive

Results for C[C@H](CO)N1C[C@H](C)[C@@H](CN(C)C(=O)C2CCC2)Oc2ncc(-c3ccc(F)cc3)cc2C1=O ?
ID4 binder: inactive

Results for C/C=C/c1cnc2c(c1)C(=O)N([C@@H](C)CO)C[C@H](C)[C@H](CN(C)C(=O)c1cccc(F)c1)O2 ?
ID4 binder: inactive

Results for C[C@@H]1CN([C@H](C)CO)C(=O)c2cc(C#CC3CC3)cnc2O[C@@H]1CN(C)Cc1ccccn1 ?
ID4 binder: inactive

What do the screens show for `COc1ccc(C)cc1NC(=O)CN(c1ccc(F)cc1)S(C)(=O)=O`?
ID4 binder: inactive

How did COc1cc(/C=C/C(=O)CC(=O)/C=C/c2ccc(O)c(OC)c2)ccc1O do in these assays?
ID4 binder: inactive

Results for O=C(C[C@@H]1CC[C@@H](NC(=O)Nc2ccc(F)cc2)[C@@H](CO)O1)NCc1cccc(F)c1 ?
ID4 binder: inactive

Results for CNC[C@H]1Oc2ncc(-c3ccc(OC)cc3)cc2C(=O)N([C@H](C)CO)C[C@@H]1C ?
ID4 binder: inactive

Results for CCCN(C)C[C@H]1Oc2cc(C3=CCCC3)ccc2S(=O)(=O)N([C@@H](C)CO)C[C@H]1C ?
ID4 binder: inactive

Results for COc1cccc(NC(=O)Cn2cc(C(=O)C3CC3)c3ccccc32)c1 ?
ID4 binder: inactive

Results for COc1ccccc1S(=O)(=O)N[C@H]1CC[C@H](CC(=O)N2CCCCC2)O[C@H]1CO ?
ID4 binder: inactive

Reprinted at random: two compounds from above
Results for O=C(C[C@@H]1CC[C@@H](NC(=O)Nc2ccc(F)cc2)[C@@H](CO)O1)NCc1cccc(F)c1 ?
ID4 binder: inactive

Results for C[C@H](CO)N1C[C@H](C)[C@@H](CN(C)C(=O)C2CCC2)Oc2ncc(-c3ccc(F)cc3)cc2C1=O ?
ID4 binder: inactive

(further entries)
How did O=C(CSc1nc2ccccc2s1)Nc1ccc(F)c(Cl)c1 do in these assays?
ID4 binder: inactive

How did COc1ccc(-c2cnc3c(c2)C(=O)N([C@H](C)CO)C[C@H](C)[C@@H](CN(C)Cc2ccccn2)O3)cc1 do in these assays?
ID4 binder: inactive

What do the screens show for `C[C@@H]1CN([C@@H](C)CO)S(=O)(=O)c2ccc(-c3cccnc3)cc2O[C@@H]1CN(C)C(=O)c1ccc2c(c1)OCO2`?
ID4 binder: inactive

What do the screens show for `CN(C)C(=O)C[C@H]1CC[C@H](NC(=O)c2ccc(F)cc2)[C@H](CO)O1`?
ID4 binder: inactive

How did COC(=O)c1ccccc1NC(=O)C(C)NS(=O)(=O)c1cc(Cl)ccc1Cl (stereo not drawn) do in these assays?
ID4 binder: inactive

Results for CCn1c(SCC(=O)Nc2ccccc2F)nnc1-c1cccc(N)c1 ?
ID4 binder: inactive

How did COc1ccc(NC(=O)CN(c2ccccc2Cl)S(C)(=O)=O)c(OC)c1 do in these assays?
ID4 binder: inactive

What do the screens show for `CC(=O)N(C)C[C@@H]1OCc2ccccc2-c2ccccc2C(=O)N([C@@H](C)CO)C[C@@H]1C`?
ID4 binder: inactive

Results for COc1ccc(S(=O)(=O)N(C)CC(=O)Nc2ccccc2Br)cc1C ?
ID4 binder: inactive

What do the screens show for `Cc1cc(C(F)(F)F)nc(SCC(=O)N2c3ccccc3Sc3ccccc32)n1`?
ID4 binder: inactive

What do the screens show for `CS(=O)(=O)N(CC(=O)Nc1cccc([N+](=O)[O-])c1)Cc1ccc(Cl)cc1`?
ID4 binder: inactive

Results for C[C@H]1CN([C@@H](C)CO)C(=O)c2cc(C#CC3CCCCC3)cnc2O[C@H]1CN(C)Cc1ccncc1 ?
ID4 binder: inactive

How did CCC(=O)N(C)C[C@@H]1Oc2cc(-c3cccc(F)c3)ccc2S(=O)(=O)N([C@H](C)CO)C[C@H]1C do in these assays?
ID4 binder: inactive

Results for O=c1c2c(nc3nc(NCc4cccc([N+](=O)[O-])c4)[nH]n13)CCC2 ?
ID4 binder: inactive

Results for CN(C)C(=O)C[C@@H]1C=C[C@@H](NC(=O)c2ccc(F)cc2)[C@@H](CO)O1 ?
ID4 binder: inactive

Results for C[C@H](CO)N1C[C@H](C)[C@@H](CN(C)C)Oc2cc(C#Cc3ccccc3)ccc2S1(=O)=O ?
ID4 binder: inactive

How did CN(C)CC#Cc1cncc(C(=O)NN)c1 do in these assays?
ID4 binder: inactive

Results for Cc1ccc(N(C(C)C(=O)Nc2ccc(Cl)c(C(F)(F)F)c2)S(C)(=O)=O)cc1 (stereo not drawn) ?
ID4 binder: inactive

How did CC(O)(CNCc1ccc(Cl)cc1)CSc1ccccc1Cl (stereo not drawn) do in these assays?
ID4 binder: inactive

How did COc1ccc(NC(=O)CN(c2ccccc2F)S(C)(=O)=O)cc1 do in these assays?
ID4 binder: inactive

What do the screens show for `CC(C)=CCc1c(O)cc2occ(-c3ccc4c(c3)OCO4)c(=O)c2c1O`?
ID4 binder: inactive

What do the screens show for `Cc1cc(=O)oc2ccc(OCC(=O)NCc3ccco3)cc12`?
ID4 binder: inactive

How did O=C(NCc1ccccc1)[C@]1(Cc2ccccc2)N=C(c2ccc(OCCCO)cc2)O[C@@H]1c1ccccc1 do in these assays?
ID4 binder: inactive

Results for S=C1NC2=C(C(c3ccccc3)N1)N1CCC2CC1 (stereo not drawn) ?
ID4 binder: inactive

What do the screens show for `Cc1ccc(-c2nnc(SCC(=O)Nc3c(Cl)cc(Cl)cc3Cl)n2C)cc1`?
ID4 binder: inactive

What do the screens show for `O=C1C=C(NCCc2ccccc2)CC(c2ccco2)C1` (stereo not drawn)?
ID4 binder: inactive

Results for Cc1cc(C)c(NC(=O)CN(C)S(=O)(=O)c2ccc(Br)cc2)c(C)c1 ?
ID4 binder: inactive

What do the screens show for `C[C@@H]1CN([C@H](C)CO)C(=O)c2cc(-c3ccccc3)cnc2O[C@@H]1CN(C)C(=O)c1cccc(F)c1`?
ID4 binder: inactive

Results for Cc1ccc(NC(=O)CSc2nnc(C)n2-c2ccccc2)cc1C ?
ID4 binder: inactive

How did CC(C)CC#Cc1cnc2c(c1)C(=O)N([C@@H](C)CO)C[C@H](C)[C@H](CN(C)C(=O)Cc1ccncc1)O2 do in these assays?
ID4 binder: inactive

Results for O=C(Cc1ccccc1)N[C@@H]1C=C[C@@H](CC(=O)N2CCOCC2)O[C@H]1CO ?
ID4 binder: inactive

Results for Cc1noc(C)c1NC(=O)N(C)C[C@H]1OCc2ccccc2-c2ccccc2C(=O)N([C@H](C)CO)C[C@H]1C ?
ID4 binder: inactive

Results for O=C(CSc1nc(-c2ccccc2)c(-c2ccccc2)[nH]1)Nc1ccc(F)cc1 ?
ID4 binder: inactive

How did OCCNc1ncnc2c1oc1ccccc12 do in these assays?
ID4 binder: inactive

How did C[C@H](CO)N1C[C@H](C)[C@H](CN(C)CC2CCOCC2)Oc2ncc(C#Cc3cccc(F)c3)cc2C1=O do in these assays?
ID4 binder: inactive

Results for CC(C)C#Cc1cnc2c(c1)C(=O)N([C@H](C)CO)C[C@H](C)[C@H](CN(C)C(=O)c1cccc(F)c1)O2 ?
ID4 binder: inactive

What do the screens show for `O=C(Nc1ccccc1C(=O)NCc1ccco1)c1ccccc1I`?
ID4 binder: inactive

Results for OC(COc1ccc2ccccc2c1Br)Cn1cnc2ccccc21 (stereo not drawn) ?
ID4 binder: inactive

How did O=C(C[C@H]1C[C@@H]2c3cc(NC(=O)Nc4ccc(F)cc4)ccc3O[C@@H]2[C@@H](CO)O1)NCC(F)(F)F do in these assays?
ID4 binder: inactive

How did COc1ccccc1N(CC(=O)Nc1c(C)cc(C)cc1C)S(C)(=O)=O do in these assays?
ID4 binder: inactive

What do the screens show for `Cc1ccc(OCC(=O)Nc2ccc(Br)cc2C(=O)O)cc1C`?
ID4 binder: inactive

How did CCC(=O)N(C)C[C@@H]1Oc2ncc(C3=CCCC3)cc2C(=O)N([C@H](C)CO)C[C@H]1C do in these assays?
ID4 binder: inactive

Results for COc1ccc(Cl)cc1N(CC(=O)Nc1ccccc1F)S(C)(=O)=O ?
ID4 binder: inactive

How did CS(=O)(=O)N(CC(=O)Nc1cc(C(F)(F)F)ccc1Cl)c1ccc(Br)cc1 do in these assays?
ID4 binder: inactive

How did CCCC#Cc1cnc2c(c1)C(=O)N([C@@H](C)CO)C[C@H](C)[C@H](CN(C)C(=O)C1CC1)O2 do in these assays?
ID4 binder: inactive
